# TRPV1 PAM = enhances activation of the human vanilloid receptor TRPV1. Q8NER1. TRPV1-expressing cells, Fluo-8 calcium influx, capsaicin EC20 potentiation; host cell line not named in the record; control for the full effect not named in the record. potentiation, % at 8.33 µM. 0.02% of 320,000 active. AID 540277; active means potentiation above 80%; inconclusive means 30% to 80%; inactive means below 30%; also: 0% is about no effect
#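 Fluo-8 calcium influx in TRPV1-expressing cells, kinetic read (ex 480/em 520 nm). Compound added and read 3 min for agonist activity, followed by capsaicin at EC20 final and 2 min further read for enhancement.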
# D2 PAM = human D2 receptor positive allosteric modulation | P14416 | DiscoveRx D2 beta-arrestin cells, luminescence, 90 min; 100% = 57 uM dopamine signal | potentiation, % (no concentration beside the values) | AID 624464 | 0.23% of 360,000 active; active = potentiation of 50% or more; inconclusive = 30% to 50%; inactive = 30% or less;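 also: compound concentration not given in the record; tested on top of an EC20 dose of dopamine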
# Target sequence (P14416 whole entry, looked up): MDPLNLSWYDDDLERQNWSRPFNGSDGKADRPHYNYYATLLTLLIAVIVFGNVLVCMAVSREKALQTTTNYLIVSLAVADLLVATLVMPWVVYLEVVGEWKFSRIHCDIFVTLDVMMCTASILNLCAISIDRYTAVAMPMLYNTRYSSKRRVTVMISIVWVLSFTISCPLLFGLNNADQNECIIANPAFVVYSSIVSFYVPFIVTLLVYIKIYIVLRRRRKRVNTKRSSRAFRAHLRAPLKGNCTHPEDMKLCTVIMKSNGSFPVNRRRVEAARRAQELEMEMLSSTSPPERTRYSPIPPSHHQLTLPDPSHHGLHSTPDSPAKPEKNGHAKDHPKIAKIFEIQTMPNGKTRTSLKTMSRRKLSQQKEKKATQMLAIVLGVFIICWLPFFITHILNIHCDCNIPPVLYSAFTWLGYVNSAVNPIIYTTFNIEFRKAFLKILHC
#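 PathHunter D2 cells, attached overnight at 37 deg C, received compound in DMSO plus dopamine at EC20 (50 nM final) for 90 min at 37 deg C. Beta-arrestin recruitment was read as luminescence after 1 h with detection reagent at ambient temperature.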
# TRPML1 inh = human mucolipin-1 channel inhibition | AID 624415 | Q9GZU1 | 0.02% of 390,000 active | activity change, negative = inhibition, % (no concentration beside the values) | TRPML1-inducible cells, Ca2+ dye fluorescence, FDSS; stronger effect = lower value; inhibition of EC80 agonist-evoked calcium signal; in the data active means activity change below about -50%; inconclusive means about -30% to -50%; inactive means above about -30%;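 also: stimulus is agonist 54-4 at its EC80 concentration; % is scaled to controls: 0 for no effect and ±100 for the full control effect; compound concentration not given in the record; the text of the record puts the active cut at -80%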
# Target sequence (Q9GZU1 whole entry, looked up): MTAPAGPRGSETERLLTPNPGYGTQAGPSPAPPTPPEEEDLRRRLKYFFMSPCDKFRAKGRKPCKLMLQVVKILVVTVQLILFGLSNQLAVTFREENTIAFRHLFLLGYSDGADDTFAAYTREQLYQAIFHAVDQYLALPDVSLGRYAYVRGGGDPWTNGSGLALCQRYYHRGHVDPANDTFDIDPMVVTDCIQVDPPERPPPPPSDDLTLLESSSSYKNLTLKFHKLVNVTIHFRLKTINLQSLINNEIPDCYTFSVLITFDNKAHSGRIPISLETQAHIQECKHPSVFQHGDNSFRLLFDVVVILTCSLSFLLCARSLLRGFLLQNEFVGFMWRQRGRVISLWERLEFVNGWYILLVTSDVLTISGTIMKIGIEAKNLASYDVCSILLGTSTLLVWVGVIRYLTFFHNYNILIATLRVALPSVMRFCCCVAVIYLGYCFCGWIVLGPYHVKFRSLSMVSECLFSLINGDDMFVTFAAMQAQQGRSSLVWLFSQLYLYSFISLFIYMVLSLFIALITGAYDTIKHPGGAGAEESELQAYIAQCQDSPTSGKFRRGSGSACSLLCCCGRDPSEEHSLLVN
#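 Tet-induced TRPML1-DL cells loaded with Ca8 no-wash calcium dye were read kinetically on FDSS. Compound addition was followed by EC80 agonist 54-4 (4 uM final); inhibition was read over 110 s.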
# Six1-Eya2 inh = inhibitors of human Six1/Eya2 interaction | AlphaScreen GST-Six1/His-Eya2 binding, biochemical; stronger effect = lower value; control for the full effect not named in the record | activity change, % (test concentration not listed) | 0.56% of 360,000 active; in the data active = activity change below about -65%; inconclusive = about -30% to -65%; inactive = above about -30%; also: % is scaled to controls: 0 for no effect and ±100 for the full control effect; compound concentration not given in the record
#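 Homogeneous AlphaScreen proximity assay pairing GST-Six1 with His-tagged Eya2 (added as 5X mix: 250 nM and 500 nM) in 50 mM Tris pH 8.0, 300 mM NaCl, 1 mM TCEP. Glutathione donor and nickel acceptor beads; 1 h, 37 °C, dark.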
# CtBP-E1A inh = blocks the CtBP interaction with E1A | AlphaScreen GST-E1A/His-CtBP binding, 1536-well; stronger effect = lower value; control for the full effect not named in the record | activity change, % (no concentration beside the values) | 0.49% of 340,000 active; in the data active means activity change below about -65%; inconclusive means about -30% to -65%; inactive means above about -30%; also: % is scaled to controls: 0 for no effect and ±100 for the full control effect; compound concentration not given in the record
#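 AlphaScreen with 125 nM GST-E1A and 125 nM His-CtBP (5X stocks) in Tris pH 8.0, 300 mM NaCl, BSA, Tween 20, TCEP. Compounds preincubated 2 h at 37 deg C, then glutathione donor/nickel acceptor beads added for 1 h at 37 deg C in dark.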
# TRPML1 ag = agonists of human TRPML1 channel | Q9GZU1 | TRPML1-expressing cells, Ca2+ dye fluorescence, FDSS; host cell line not named in the record; reference of the full effect not given here | activation, % (test concentration not listed) | 0.12% of 410,000 active | AID 624414; in the data active = activation above about 50%; inconclusive = about 30% to 50%; inactive = below about 30%; also: 0% is about no effect; the text of the record puts the active cut at 80%
#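 Tet-induced TRPML1-DL cells, 1,500 per well, cultured overnight, were loaded with a no-wash Ca2+ dye for 45–90 min. Calcium fluorescence was recorded on the FDSS for 110 s after compound addition, before the EC80 agonist (4 uM 54-4) was added.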
# * hit, by the source's call; u = inconclusive; x = not tested or not shown. Rows were taken by chance (roughly 0.95% active in at least one column).
mol	TRPV1 PAM	D2 PAM	TRPML1 inh	Six1-Eya2 inh	CtBP-E1A inh	TRPML1 ag
CC(=O)c1cccc(NC(=O)/C(=C\c2cccnc2)NC(=O)c2ccco2)c1	1	-2	4	1	6	-0.5
Cn1nnc2cc(C(=O)Nc3ccc(Cl)cc3)ccc21	-1	-17	3	0	x	0.1
Cn1c(=O)[nH]c2c(cnn2C)c1=O	x	-1	5	-10	2	-0.2
CNC(=S)SCCOc1ccccc1C	-19	-8	7	6	10	-1.5
Cc1nnc(SCC(=O)N(Cc2ccccc2)C(C)C)n1-c1ccccc1	1	-14	-11	3	1	-0.9
Cc1cc(=O)oc2cc(NC(=S)NCc3ccccn3)ccc12	5	5	-7	-19	-8	-0.5
CCC(C)NS(=O)(=O)c1ccc(OCC(=O)N2CCCC2)cc1 (centres undefined)	-1	19	34	4	4	0.8
CN(Cc1ccccc1F)C(=O)CCNC(=O)c1ccc(C(C)(C)C)cc1	-12	-21	2	0	12	0.0
CSc1ccccc1NC(=O)Nc1ccccc1Cl	-2	-8	25	-7	-4	1.1
COc1ccc2[nH]cc(CCNC(=O)Cc3ccc(F)cc3)c2c1	5	-2	6	4	-4	0.0
COc1ccc([N+](=O)[O-])cc1NC(=O)c1csc(C)c1	2	9	-4	1	5	-0.7
Cc1[nH]c2ccccc2c1C(c1ccncc1)N1CCN(c2ccc(F)cc2)CC1 (centres undefined)	-4	-22	7	-20	-10	0.0
CC1CC(C)CN(C(=O)CCCNC(=O)c2ccc(Cl)cc2)C1 (centres undefined)	-11	-12	-4	-4	-9	-0.5
Nc1ccccc1Nc1cc(-c2ccccc2)nn1-c1ccccc1	-10	24	17	u	-5	13
Cc1c(O)c(=O)c2ccccc2n1C	12	-1	2	1	1	0.3
c1ccc(OCC2CCNCC2)nc1	10	-3	12	5	2	0.8
Cc1cc(NC(=O)CSc2cn(CCNC(=O)c3ccc(F)cc3)c3ccccc23)no1	9	-1	-3	-1	-3	0.2
COc1ccc(-c2oc3ncn(CCN4CCOCC4)c(=N)c3c2-c2ccc(OC)cc2)cc1	-20	-10	0	-7	-10	-0.6
Cc1noc(C)c1COC(=O)c1csc2c1CCCC2	-19	2	3	6	16	-0.6
COc1ccc(NC(=O)CNC(=O)c2nn(-c3ccc(OC)c(Cl)c3)c(=O)c3ccccc23)c(OC)c1	1	4	12	10	8	-0.1
CC(=O)Nc1ccc(N2C(=O)CSC2c2cccc([N+](=O)[O-])c2)cc1 (centres undefined)	24	-2	6	-6	6	0.6
CCCCn1c(N)c(N(CCOC)C(=O)COC(=O)COc2c(C)cccc2C)c(=O)[nH]c1=O	0	-68	-21	4	3	-0.5
CC(C)CCC1(C)NC(=O)N(CC(=O)c2ccc[nH]2)C1=O (centres undefined)	-11	3	3	3	-1	-0.2
CC(C)(C)c1ccc(C(=O)NC(=S)NCc2ccco2)cc1	-13	-6	-6	-8	-8	3.1
O=C(C=C=Nc1ccccc1)C(=O)N=C=Cc1ccccc1	-15	-13	-10	u	-20	3.0
Cc1ccc(C(=O)N/C(=C\c2ccc(F)cc2)C(=O)NCCN2CCOCC2)cc1	-8	-5	1	6	2	0.2
O=C(CN1C(=O)c2ccccc2S1(=O)=O)NC1CCCC1	u	-4	-1	-1	-5	-0.2
CCc1ccccc1NC(=O)NCCN1CCCCC1	21	-10	4	3	2	0.1
Cc1nc(S/C(=C/c2ccc(-c3ccc(Cl)cc3)o2)C(=O)O)n[nH]1	9	-4	8	-1	-14	-0.4
O=C1NC[C@H](CCCCN2C[C@H](Cc3ccccc3)N(Cc3ccccc3)C(=O)C2=O)N(CCc2ccccc2)C1=O	x	x	x	10	1	-0.5

# (list continues)
mol	TRPV1 PAM	D2 PAM	TRPML1 inh	Six1-Eya2 inh	CtBP-E1A inh	TRPML1 ag
COc1ccc(/C=N\NC(=O)c2cc(O)c(O)c(O)c2)cc1CN1CCN(c2ccc(F)cc2)CC1	-6	-12	9	u	u	0.3
CCC1Sc2ccccc2N(CC(=O)NCc2ccccc2OC)C1=O (centres undefined)	-12	-13	12	-1	4	2.5
Cn1c(=O)oc2cc(S(=O)(=O)Nc3ccc4c(c3)OCCO4)ccc21	2	6	6	3	1	-0.9
O=C(Nc1cccc(F)c1)NC1(C(=O)NCC2CCCO2)CCCCC1 (centres undefined)	2	-6	-8	-2	2	-0.3
COc1ccc(C2c3c(ccc4ccccc34)Oc3ncn4nc(Cc5ccccc5)nc4c32)cc1OC (centres undefined)	-1	7	-18	-4	0	0.8
Cc1ccc(N=Nc2c(C)[nH]n(-c3ccccc3)c2=O)cc1	3	1	-6	-28	-20	1.9
O=C(CSc1nnc(C2CC2)n1C1CC1)Nc1cccc(Br)c1	3	-5	-13	13	19	0.2
Cc1ccc(S(=O)(=O)N2CCN(CCc3ccncc3)CC2)cc1	x	-4	-3	4	0	0.2
CCN(CC)CCOC(=O)c1ccc(NC(=O)CNC(=O)c2ccccc2)cc1	-5	-5	51	8	5	0.2
COc1ccc(C)cc1S(=O)(=O)N(CC(=O)NCc1ccc(Cl)cc1)Cc1ccccc1	0	-10	-10	0	16	1.1
CCOc1ccc(Cc2c(Cl)nc(SC)nc2OC)cc1	-10	-2	4	42	29	0.8
O=C(CN1C(=O)NC(c2ccccc2)(c2ccccc2)C1=O)N1CCOCC1	17	-1	25	10	8	1.9
COc1ccc(S(=O)(=O)N(C)c2ccc(C(=O)N3CCCC3)cc2)cc1	-14	9	-21	6	4	3.1
O=C(NCc1ccco1)c1ccccc1NS(=O)(=O)c1cccs1	u	-10	-4	1	0	-0.2
Cc1cc(C)n(-c2ccc(C(=O)OCC(=O)Nc3cc(Cl)ccc3[N+](=O)[O-])cc2)n1	-3	-21	8	-5	-3	1.4
COc1ccc(CNS(=O)(=O)CCNCCc2ccccc2)cc1	x	-13	12	1	7	-0.4
CC(C)NC(=O)[C@@H]1CSC2c3ccccc3C(=O)N21 (some centres undefined)	22	-1	-7	3	5	2.0
CCN(CC(=O)Nc1cc(S(=O)(=O)N2CCCCC2)ccc1C)Cc1ccccc1	-10	-15	-14	-4	0	0.4
CCOc1ccc(C(=O)NNC(=O)c2cc(C)oc2C)cc1	5	1	12	7	-7	0.3
COc1ccccc1N(CC(=O)Nc1cc(C)on1)S(=O)(=O)c1ccc(Cl)cc1	2	-19	19	-11	-3	-0.6
CN1CCC(NC(=O)Cc2c(F)cccc2Cl)CC1	4	-3	-16	4	22	1.0
CCOC(=O)c1c(NC(=O)C2COc3ccccc3O2)sc2c1CC(C)(C)NC2(C)C (centres undefined)	-2	-17	9	-13	0	0.0
Cc1ccc(C)c(NC(=O)CCN2CC(C)CC(C)C2)c1 (centres undefined)	21	1	x	-2	x	x
O=C1CN(C(=O)c2c(F)cccc2F)C(c2ccc(F)cc2)c2cc(Br)ccc2N1 (centres undefined)	2	-6	-9	-1	-2	1.9
CCOC(=O)c1ccccc1Nc1cc(C)nc2nc(-c3ccco3)nn12	-8	x	17	x	x	2.4
CCOc1ccccc1C(=O)N1CCN=C1SC	3	-20	13	2	1	1.3
CN1C2=CC=CC=CC2=[N+](C)C12C([N+](=O)[O-])=CC(=[N+]([O-])[O-])C=C2[N+](=O)[O-] (centres undefined)	-15	17	-2	-1	-5	0.9
O=S(=O)(c1ccc(-c2n[nH]c(=S)o2)cc1)N1CCCCC1	0	-13	7	2	-19	-0.3
CC1(C(=O)NCc2ccccc2Br)CCN1Cc1ccc(-c2ccccc2)o1 (centres undefined)	x	-8	x	-4	-4	-0.1
CCCN(C(=O)c1ccco1)c1nnc(-c2ccccc2C)s1	-4	6	6	26	x	2.0

# Sorted by value in D2 PAM (low to high): 3 from the list above
SMILES	D2 PAM	TRPML1 inh	Six1-Eya2 inh	CtBP-E1A inh
O=C(CSc1nnc(C2CC2)n1C1CC1)Nc1cccc(Br)c1	-5	-13	13	19
CC(C)NC(=O)[C@@H]1CSC2c3ccccc3C(=O)N21 (some centres undefined)	-1	-7	3	5
Cc1ccc(N=Nc2c(C)[nH]n(-c3ccccc3)c2=O)cc1	1	-6	-28	-20

# Continued.
mol	TRPV1 PAM	D2 PAM	TRPML1 inh	Six1-Eya2 inh	CtBP-E1A inh	TRPML1 ag
CCN1CCN(CCCNC(=O)CCC(=O)N2CC(C)Oc3ccc(C)cc32)CC1 (centres undefined)	0	-3	3	11	18	-0.4
COc1ccc(-c2sc3ccc(N4CCOCC4)cc3c2-c2ccc(O)cc2)cc1	-1	-3	12	-7	3	1.0
CC(C)c1csc(CN2CCCC(CCC(=O)NCc3ccccc3F)C2)n1 (centres undefined)	16	-9	8	3	x	2.1
Nc1nnc(COc2ccccc2)s1	-1	-6	6	20	0	-0.4
CC(NC(=O)CSc1ncccc1C(=O)O)C1CC2CCC1C2 (centres undefined)	10	1	1	1	9	0.2
COC(=O)C1=C(C)NC(=O)NC1c1ccccc1 (centres undefined)	5	-4	-12	3	6	0.2
CC[C@]1(C(=O)OC)[C@H]2C(=O)N(C)C(=O)[C@H]2[C@H]2CN=C(SCc3ccccc3)N21	x	-6	-2	1	6	1.3
CSCCC(=O)NC1CCCN(CCc2ccccc2)C1 (centres undefined)	-20	-12	13	3	5	-0.3
COc1ccc2[nH]cc(/C=N/NS(=O)(=O)c3ccc(C)cc3)c2c1	6	-10	-21	-8	-7	0.2
Cc1ccc2nc3c(cc(C(=O)NCCN4CCOCC4)c(=N)n3CCCN3CCOCC3)c(=O)n2c1	10	-1	0	8	-2	-0.1
COC(=O)C1=C(C)NC(=O)NC1c1ccc(OC(=O)c2ccco2)cc1 (centres undefined)	5	-1	8	-2	-5	2.1
Cc1ccc(C(=O)NCC(=O)OCC(=O)N2CCCc3ccccc32)cc1	0	-11	14	-1	-1	1.6
CCOc1ccc(NC(=O)c2ccc(NCC(=O)N3CCCCCC3)cc2)cc1	-3	-12	5	9	x	0.3
COC(=O)c1ccc(C(=O)OC)c(NC(=S)N2CCN(C(=O)C3CCCO3)CC2)c1 (centres undefined)	-3	-9	13	2	4	0.0
CC(NC(=O)c1cc2c(cc1Cl)N1CCCCCC1=NS2(=O)=O)c1ccc(S(N)(=O)=O)cc1 (centres undefined)	-1	3	39	-5	3	0.7
O=C(CCS(=O)(=O)Cc1ccc(Cl)cc1)NCCCN1CCOCC1	9	0	6	-2	3	3.2
CC(/C=N/Nc1ncc(C)c(=O)[nH]1)=C\c1ccccc1	-11	-11	5	-7	-4	0.5
Cc1cc(NC(=O)c2ccc(Cl)c(S(=O)(=O)N3CCCCC3)c2)no1	-26	-6	-5	-7	7	-0.3
COCCN1C(=O)c2ccc(C(=O)O)cc2C1=O	-2	-5	15	5	1	0.3

# An excerpt from above in order of formula weight, high to low.
mol	TRPV1 PAM	D2 PAM	TRPML1 inh	Six1-Eya2 inh	CtBP-E1A inh	TRPML1 ag
COc1ccc(-c2sc3ccc(N4CCOCC4)cc3c2-c2ccc(O)cc2)cc1	-1	-3	12	-7	3	1.0
COCCN1C(=O)c2ccc(C(=O)O)cc2C1=O	-2	-5	15	5	1	0.3
Nc1nnc(COc2ccccc2)s1	-1	-6	6	20	0	-0.4
